# High-throughput results: PubChem BioAssay, Broad Institute
# FGF22 binding: shifts melting point of recombinant human FGF22 | Q9HCT0 | recombinant FGF22 thermal shift, SYPRO orange fluorescence; percent of sucrose octasulfate shift, DMSO zero | calls only at 9.99 µM | 340,000 compounds, 1.5% hits | AID 651658;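 active means melting point raised past a set limit in the mean and every replicate; three in four hits are not shown here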
# Target sequence (Q9HCT0 whole entry, looked up): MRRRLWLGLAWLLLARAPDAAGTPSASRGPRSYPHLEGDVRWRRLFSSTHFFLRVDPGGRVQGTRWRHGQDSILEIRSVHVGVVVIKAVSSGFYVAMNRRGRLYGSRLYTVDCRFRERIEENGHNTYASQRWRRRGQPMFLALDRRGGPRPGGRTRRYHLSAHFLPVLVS
# Ecoli rRNA inh: selective bacterial rRNA inhibition in E. coli | E. coli WT GFP vs humanized-ribosome RFP mutants, fluorescence, 24 h; stronger effect = lower value; DMSO median 0, no signal -100 | GFP signal change (wild-type ribosome), % (concentration not given with the values) | 350,000 compounds, 1.6% hits | AID 720706;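 active means significant combined selectivity score with lowered wild-type GFP, culture density cut under 30%, mutant RFP and density less affected; inactive means any of these conditions unmet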; further: one replicate is shown; some compounds called inactive have numbers as strong as hits
# MLL AF4-AF9 inh: MLL-AF4/AF9 protein interaction inhibition. AID 651704. P42568. 350,000 compounds, 0.47% hits. inhibition, % at 10 µM. AlphaScreen, biotin-AF4 peptide binding to FLAG-AF9;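 active means every replicate reaching a set inhibition limit, whatever the replicate mean, cut at about 25% in these data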;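 further: 0% = plate neutral control median and 100% = total signal loss; the record names both 10 and 1 µM as test concentration; the first replicate is given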
# Target sequence (P42568 whole entry, looked up): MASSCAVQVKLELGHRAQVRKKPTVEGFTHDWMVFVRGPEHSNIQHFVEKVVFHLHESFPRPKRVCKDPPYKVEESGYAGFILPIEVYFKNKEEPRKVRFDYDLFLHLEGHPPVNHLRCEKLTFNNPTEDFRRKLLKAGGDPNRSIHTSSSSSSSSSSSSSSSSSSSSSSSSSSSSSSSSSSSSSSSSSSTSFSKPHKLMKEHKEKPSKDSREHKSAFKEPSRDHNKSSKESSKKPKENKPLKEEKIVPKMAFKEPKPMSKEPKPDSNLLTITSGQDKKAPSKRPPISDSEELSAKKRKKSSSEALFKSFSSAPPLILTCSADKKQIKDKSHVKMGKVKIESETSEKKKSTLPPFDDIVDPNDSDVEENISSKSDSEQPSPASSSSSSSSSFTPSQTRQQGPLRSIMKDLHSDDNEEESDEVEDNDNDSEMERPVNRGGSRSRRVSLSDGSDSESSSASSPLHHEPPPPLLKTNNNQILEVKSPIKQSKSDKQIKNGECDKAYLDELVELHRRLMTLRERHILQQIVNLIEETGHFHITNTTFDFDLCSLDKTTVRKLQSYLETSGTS
# Ecoli rRNA inh OD600: recorded beside Ecoli rRNA inh, whose call it bears; OD600 change, %; measured here: OD600 growth;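 optical density of the mix in the first replicate; 0 = DMSO median and -100 = no signal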
# Ecoli rRNA inh RFP: recorded beside Ecoli rRNA inh, whose call it bears; RFP signal change, %; measured here: RFP humanized mutant strains;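 first replicate; 0 = DMSO median and -100 = no signal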
# An asterisk follows results filed as active; i = inactive; & = joins results of further samples. The list is partial; rates above refer to the full screens.
entry	FGF22 binding	Ecoli rRNA inh	Ecoli rRNA inh OD600	Ecoli rRNA inh RFP	MLL AF4-AF9 inh	smiles
1	i	2	2	-3.5	-2.1	C[C@H]1CCCCO[C@@H](CN(C)C(=O)Nc2ccc(C(F)(F)F)cc2)[C@@H](C)CN([C@@H](C)CO)C(=O)c2cc(NS(=O)(=O)c3ccc(Cl)cc3)ccc2O1
2	i	-1	2	-1.1	-1.3	COc1ccc(NC(=O)N2CCC3(CC2)CN(C(C)=O)[C@@H](CO)c2[nH]c4cc(OC)ccc4c23)cc1
3	i	4	7	2.3	0.8	OC(c1ccccc1)c1ncc(-c2ccccc2F)[nH]1 (centres undefined)
4	i	-17	-30	-4.4	7.6	CCN(CC)S(=O)(=O)c1ccc(N2CCCCC2)c(NC(=O)C2CSC3(C)CCC(=O)N23)c1 (centres undefined)
5	i	1	-5	2.0	-0.5	O=C(C[C@@H]1C=C[C@@H](NC(=O)CN2CCOCC2)[C@H](CO)O1)NCCc1ccccc1
6	i	7	8	-2.6	-2.1	C[C@H](CO)N1C[C@H](C)[C@H](CN(C)C(=O)Cc2ccccn2)Oc2ncc(-c3ccc(F)cc3)cc2C1=O
7	i	-15	-20	6.4	2.6	COC(=O)[C@]12C[C@H](CC(=O)N3CCCCC3)C(=O)N(Cc3ccc4c(c3)OCO4)C1=C[C@H](COCc1ccccc1)O[C@@H]2C
8	i	-45	-62	-13	0.3	CC(C)Nc1nc(-c2ccccc2F)c2sc(-c3ccccc3)cc2n1
9	i	-1	5	1.6	-5.2	Cc1cccc(-c2ccc([C@@H]3[C@@H](CO)N4CCCCN(S(=O)(=O)c5cccs5)C[C@@H]34)cc2)c1
10	i	2	12	1.7	-1.1	COCC(=O)NC[C@H]1N[C@H](CO)[C@@H]1c1ccc(-c2ccccc2F)cc1
11	i	5	9	0.0	-3.9	N#C[C@H]1[C@@H](c2ccccc2)[C@H](CO)N1C(=O)C1CCCC1
12	i	7	13	-2.5	3.0	CN(C)CCNC(=O)c1cccc(-c2cccc3nccn23)c1
13	i	-2	-14	-3.2	-1.2	CC(C)(C)c1cc(NC(=O)COC(=O)c2ccccc2)n(-c2ccccc2)n1
14	i	2	0	2.8	8.0	C[C@@H]1CN([C@@H](C)CO)S(=O)(=O)c2ccc(C#Cc3ccccc3)cc2O[C@@H]1CN(C)C
15	i	2	11	1.2	-6.4	CCCC(NC(=O)CCc1c(C)c2cc3c(C)c(C)oc3cc2oc1=O)C(=O)NC(Cc1ccc(Cl)cc1)C(=O)O (centres undefined)
16	i	0	-4	-0.8	-4.9	CCCNC(=O)N1C[C@@H](C)[C@@H](OC)CN(C)C(=O)c2cc(NC(=O)CCC)ccc2OC[C@H]1C
17	i	0	2	1.6	-1.5	C[C@H](CO)N1C[C@H](C)[C@@H](CN(C)S(=O)(=O)c2cccs2)Oc2ccc(NC(=O)C3CC3)cc2CC1=O
18	i	2	4	-3.3	-2.7	C[C@H]1CN([C@@H](C)CO)C(=O)c2cc(NC(=O)Nc3ccc4c(c3)OCO4)ccc2O[C@@H]1CN(C)C(=O)Nc1ccc2c(c1)OCO2
19	i	-1	-5	-0.9	2.0	C[C@H](CO)N1C[C@H](C)[C@@H](CN(C)CC2CCCCC2)Oc2ccc(NS(=O)(=O)c3ccc(Cl)cc3)cc2C1=O
20	i	0	0	-0.1	-1.3	C[C@@H]1CN([C@@H](C)CO)C(=O)Cc2cc(NC(=O)C3CCCCC3)ccc2O[C@@H]1CN(C)C(=O)NC1CCCCC1
21	i	6	11	-2.0	-11	COc1ccc(S(=O)(=O)Nc2ccc3c(c2)C(=O)N([C@@H](C)CO)C[C@H](C)[C@H](CN(C)S(C)(=O)=O)O3)cc1
22	i	-8	-40	21	4.1	C[C@@H]1CCCCO[C@@H](CN(C)Cc2ccc(C(F)(F)F)cc2)[C@H](C)CN([C@H](C)CO)C(=O)c2cc(NS(=O)(=O)c3cccs3)ccc2O1
23	i	-3	-8	1.6	-2.1	C[C@@H]1CCCCO[C@H](CN(C)S(C)(=O)=O)[C@H](C)CN([C@@H](C)CO)C(=O)c2cc(NC(=O)c3ccccc3)ccc2O1
24	i	1	2	1.8	-1.6	C[C@@H]1CCCCO[C@H](CN(C)C(=O)NC2CCCCC2)[C@H](C)CN([C@H](C)CO)C(=O)c2cc(NC(=O)NC3CCCCC3)ccc2O1
25	i	0	10	1.1	-1.9	CCC(=O)N1[C@@H]2c3ccc(/C=C/c4ccccc4)c(=O)n3C[C@H]1[C@H](CO)[C@H]2C(=O)N1CCOCC1
26	i	1	-12	3.6	2.0	CCOC(=O)[C@]12CCCC=C1N(Cc1ccc3c(c1)OCO3)C(=O)[C@H](CC(=O)NCC1CCCCC1)C2
27	i	-20	-26	1.7	-7.9	Cc1cccc(C2CC(c3ccccc3)=NN2c2ccc(S(N)(=O)=O)cc2)c1 (centres undefined)
28	i	-2	1	1.6	5.4	C[C@H](CO)N1C[C@H](C)[C@H](CN(C)C(=O)[C@H](Cc2ccccc2)N(C)C)OCc2ccccc2-c2c(n(C)c3ccccc23)C1=O
29	i	3	0	1.0	-0.4	CO[C@@H]1CN(C)C(=O)c2cc(NC(=O)C3CCCC3)ccc2OC[C@@H](C)N(C)C[C@@H]1C
30	i	8	4	-2.4	-0.8	CC(=O)N(C)C[C@@H]1Oc2cc(C#C[C@H](C)O)ccc2S(=O)(=O)N([C@@H](C)CO)C[C@@H]1C
31	i	4	-4	3.8	3.4	COC(=O)[C@]12C[C@H](CC(=O)NCc3ccc(OC)c(OC)c3)C(=O)N(Cc3ccccc3)C1=C[C@H](C(C)(C)C)O[C@@H]2C
32	i	-6	-6	14	-0.3	CO[C@@H]1CN(C)C(=O)c2ccc(NC(=O)c3ccc(F)cc3)cc2OC[C@@H](C)N(C(=O)c2ccc(F)cc2)C[C@H]1C
33	i	0	9	-1.9	-23	COc1ccc(CN(C)C[C@@H]2Oc3ccc(NC(=O)C4CC4)cc3CC(=O)N([C@@H](C)CO)C[C@@H]2C)cc1
34	i	3	3	0.3	-0.3	C[C@H]1CN([C@@H](C)CO)C(=O)Cc2cc(NC(=O)CCC(F)(F)F)ccc2O[C@@H]1CN(C)C(=O)Nc1cccc2ccccc12
35	i	3	1	-3.4	-1.4	C[C@@H]1CN([C@H](C)CO)C(=O)c2cc(C#C[C@@H](C)O)cnc2O[C@H]1CN(C)C(=O)Nc1ccc(C(F)(F)F)cc1
36	i	0	9	1.6	-0.5	COc1ccc(CN(C)C[C@H]2OCCCC[C@H](C)Oc3ccc(NS(=O)(=O)c4cn(C)cn4)cc3C(=O)N([C@H](C)CO)C[C@@H]2C)cc1
37	i	1	4	-1.2	0.5&-2.5	Cc1noc(C)c1S(=O)(=O)Nc1ccc2c(c1)C(=O)N([C@H](C)CO)C[C@H](C)[C@@H](CN(C)C(=O)CCCN(C)C)OCCCC[C@@H](C)O2
38	i	-7	-47	31	9.9	O=C(C[C@H]1C[C@@H]2c3cc(NC(=O)Nc4ccc(C(F)(F)F)cc4)ccc3O[C@@H]2[C@H](CO)O1)NCc1ccccn1
39	i	3	-6	0.3	-3.3	C[C@@H]1CN([C@@H](C)CO)C(=O)c2cc(NC(=O)c3ccncc3)ccc2O[C@H]1CN(C)C
40	i	2	7	-0.8	-1.4	CCC(=O)Nc1ccc2c(c1)OC[C@H](C)N(CC1CCOCC1)C[C@@H](C)[C@@H](OC)CN(C)C2=O
41	i	6	7	-2.4	-2.4	C[C@@H]1CN([C@H](C)CO)C(=O)Cc2cc(NS(=O)(=O)c3cn(C)cn3)ccc2O[C@H]1CN(C)C(=O)Nc1ccccc1
42	i	-28	-53	27	7.5	Cc1ccccc1-c1ccc2c(c1)O[C@@H](CN(C)Cc1ccncc1)[C@@H](C)CN([C@H](C)CO)S2(=O)=O
43	i	2	5	-0.5	-5.2	CC(C)CN(C(=O)COC(=O)c1cccs1)c1c(N)n(Cc2ccccc2)c(=O)[nH]c1=O
44	i	-1	4	-2.0	-1.0	CCC(=O)N1C[C@H](C)[C@@H](OC)CN(C)C(=O)c2cc(NC(=O)COC)ccc2OC[C@H]1C
45	i	9&3	1&-21	-1.4&9.6	-1.4&1.6	C[C@@H]1CN([C@@H](C)CO)C(=O)CCCn2nncc2CO[C@H]1CN(C)S(=O)(=O)c1ccc(Oc2ccccc2)cc1
46	i	-21	-41	18	-5.4	OC(c1ccccc1)(c1nc(-c2cccc(C(F)(F)F)c2)cs1)C(F)(F)F (centres undefined)
47	i	-18	-47	19	-9.8	C[C@H]1CN([C@@H](C)CO)S(=O)(=O)c2ccc(C#CC3CCCC3)cc2O[C@@H]1CN(C)C(=O)C1CC1
48	i	1	2	-0.8	3.7	COc1ccc(S(=O)(=O)N(C)C[C@H]2OCCCC[C@H](C)Oc3ccc(NC(=O)CCCN(C)C)cc3C(=O)N([C@@H](C)CO)C[C@@H]2C)cc1
49	i	4	13	-2.2	-1.7	CC(C)C(=O)Nc1ccc2c(c1)C(=O)N(C)[C@H]1CC[C@@H](CC(=O)NCC3CC3)O[C@@H]1CO2
50	i	2	-1	1.2	-5.2	C[C@H]1CN([C@@H](C)CO)C(=O)c2cc(NC(=O)NC3CCCCC3)ccc2O[C@@H]1CN(C)C(=O)Nc1cccc2ccccc12
51	i	-1	-5	2.2	-0.4	COc1ccc(S(=O)(=O)Nc2ccc3c(c2)C(=O)N([C@@H](C)CO)C[C@H](C)[C@H](CN(C)C(=O)NC2CCCCC2)OCCCC[C@H](C)O3)cc1
52	i	-2	-8	2.0	2.6	Cc1ccc(C)c(-n2nnc3ccccc3c2=O)c1
53	i	-3	-6	0.2	1.0	O=C(CN1CCN(c2ccccc2)CC1)Nc1ccccc1C(=O)NCCc1ccccc1
54	i	-1	1	-0.1	7.1	COc1ccccc1-c1ccc([C@H]2[C@H]3CN(C(=O)c4cccnc4)CCCCN3[C@H]2CO)cc1
55	i	3	8	-3.5	1.2	Cc1ccc(OCCNC(=O)[C@H]2O[C@@H](n3ccc(=O)[nH]c3=O)[C@H](O)[C@@H]2O)cc1C
56	i	-5	-8	2.7	-9.4	CC(=O)NC[C@@H]1[C@@H](c2ccc(-c3ccccc3)cc2)[C@H](CO)N1C(=O)C1CC1
57	i	-3	0	2.2	1.0	COc1cccc(CNC(=O)[C@@H]2CCCN2C(=O)[C@H]2CCCCN2C(=O)c2cccs2)c1
58	i	-3	-9	0.8	-0.4	C[C@H]1CN([C@@H](C)CO)C(=O)c2cccc(NC(=O)c3ccncc3)c2O[C@@H]1CN(C)CC1CC1
59	i	5	0	-1.6	-1.8	CO[C@@H]1CN(C)C(=O)c2ccc(NC(=O)c3cnccn3)cc2OC[C@H](C)N(C(C)=O)C[C@H]1C
60	i	-8	-1	-1.7	-2.4	CC(=O)N(C)C[C@@H]1Oc2cc(C3=CCCC3)ccc2S(=O)(=O)N([C@@H](C)CO)C[C@@H]1C
61	i	-21	-38	-9.1	2.0	Cn1c(=O)c2cc(NC(=O)Nc3cccnc3)ccc2n1Cc1cccc(C(F)(F)F)c1
62	i	-2	-6	-0.8	2.0	CO[C@@H]1CN(C)C(=O)c2cc(NC(C)=O)ccc2OC[C@@H](C)N(CCc2ccccc2)C[C@H]1C
63	i	-29	-26	-0.3	4.4	CC(C)C[C@H]1COc2cccc(N3CCN(Cc4ccccc4F)CC3)c2S(=O)(=O)N1

# In a second layout: ten of the compounds above.
[46] OC(c1ccccc1)(c1nc(-c2cccc(C(F)(F)F)c2)cs1)C(F)(F)F (centres undefined)
[47] C[C@H]1CN([C@@H](C)CO)S(=O)(=O)c2ccc(C#CC3CCCC3)cc2O[C@@H]1CN(C)C(=O)C1CC1
[48] COc1ccc(S(=O)(=O)N(C)C[C@H]2OCCCC[C@H](C)Oc3ccc(NC(=O)CCCN(C)C)cc3C(=O)N([C@@H](C)CO)C[C@@H]2C)cc1
[49] CC(C)C(=O)Nc1ccc2c(c1)C(=O)N(C)[C@H]1CC[C@@H](CC(=O)NCC3CC3)O[C@@H]1CO2
[50] C[C@H]1CN([C@@H](C)CO)C(=O)c2cc(NC(=O)NC3CCCCC3)ccc2O[C@@H]1CN(C)C(=O)Nc1cccc2ccccc12
[51] COc1ccc(S(=O)(=O)Nc2ccc3c(c2)C(=O)N([C@@H](C)CO)C[C@H](C)[C@H](CN(C)C(=O)NC2CCCCC2)OCCCC[C@H](C)O3)cc1
[52] Cc1ccc(C)c(-n2nnc3ccccc3c2=O)c1
[53] O=C(CN1CCN(c2ccccc2)CC1)Nc1ccccc1C(=O)NCCc1ccccc1
[54] COc1ccccc1-c1ccc([C@H]2[C@H]3CN(C(=O)c4cccnc4)CCCCN3[C@H]2CO)cc1
[55] Cc1ccc(OCCNC(=O)[C@H]2O[C@@H](n3ccc(=O)[nH]c3=O)[C@H](O)[C@@H]2O)cc1C

Compound	46	47	48	49	50	51	52	53	54	55
FGF22 binding	i	i	i	i	i	i	i	i	i	i
Ecoli rRNA inh	-21	-18	1	4	2	-1	-2	-3	-1	3
Ecoli rRNA inh OD600	-41	-47	2	13	-1	-5	-8	-6	1	8
Ecoli rRNA inh RFP	18	19	-0.8	-2.2	1.2	2.2	2.0	0.2	-0.1	-3.5
MLL AF4-AF9 inh	-5.4	-9.8	3.7	-1.7	-5.2	-0.4	2.6	1.0	7.1	1.2
